High-throughput results as filed in PubChem.
MLL AF4-AF9 inh: inhibitors of AF4 peptide binding to AF9, primary screen, biochemical, AlphaScreen, biotin-AF4 peptide, FLAG-AF9, single point; Protein AF-9 (Homo sapiens), P42568; inhibition, % at 10 µM; 0.47% of 350,000 active;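 active means every replicate reaching a set inhibition limit, whatever the replicate mean, cut at about 25% in these data; inconclusive means mean inhibition reaches that limit but some replicates miss it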;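 further: 0% = plate neutral control median and 100% = total signal loss; the record names both 10 and 1 µM as test concentration; the first replicate is given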
Target sequence (P42568 whole entry, looked up): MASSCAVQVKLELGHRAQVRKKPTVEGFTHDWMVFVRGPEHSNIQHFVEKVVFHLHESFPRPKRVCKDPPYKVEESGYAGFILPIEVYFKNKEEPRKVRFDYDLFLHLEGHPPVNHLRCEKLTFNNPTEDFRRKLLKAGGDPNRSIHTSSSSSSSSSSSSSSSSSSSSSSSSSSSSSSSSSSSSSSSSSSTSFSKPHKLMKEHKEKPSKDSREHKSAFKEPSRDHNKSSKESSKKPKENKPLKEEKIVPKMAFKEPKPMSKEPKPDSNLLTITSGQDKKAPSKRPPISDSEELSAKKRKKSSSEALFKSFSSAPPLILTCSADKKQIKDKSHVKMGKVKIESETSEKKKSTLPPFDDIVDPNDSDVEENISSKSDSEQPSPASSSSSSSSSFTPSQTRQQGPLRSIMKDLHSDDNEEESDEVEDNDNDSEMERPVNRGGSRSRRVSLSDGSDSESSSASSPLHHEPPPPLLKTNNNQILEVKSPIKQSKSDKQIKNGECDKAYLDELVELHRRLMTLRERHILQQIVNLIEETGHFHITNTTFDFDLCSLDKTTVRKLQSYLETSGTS
ALR H2O2 inh: inhibitors of human ALR sulfhydryl oxidase, primary screen, biochemical, H2O2 detection, HRP-luminol luminescence, single point | FAD-linked sulfhydryl oxidase ALR (Homo sapiens), P55789 | 3.8% of 290,000 active | purified ALR, DTT oxidation | inhibition, % (concentration not given with the values);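 active means mean and each replicate at 75% or more; inconclusive means only one of the two met; inactive means neither met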;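 further: stock transfer was 7.5 nL into about 7.5 µL; 0% = neutral wells and 100% = wells with inactivated enzyme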
Target sequence (P55789 whole entry, looked up): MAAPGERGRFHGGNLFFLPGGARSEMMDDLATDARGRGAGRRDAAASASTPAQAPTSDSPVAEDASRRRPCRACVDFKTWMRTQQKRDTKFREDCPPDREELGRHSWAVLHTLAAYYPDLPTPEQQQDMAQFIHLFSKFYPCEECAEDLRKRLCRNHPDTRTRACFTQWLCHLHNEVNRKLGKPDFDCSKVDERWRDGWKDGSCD
Ecoli rRNA inh: reduced GFP signal of wild-type E. coli, primary screen, bacterial rRNA inhibitor project, GFP/RFP fluorescence, OD600, single point. E. coli WT GFP vs humanized-ribosome RFP mutants, 24 h; stronger effect = lower value; DMSO median 0, no signal -100. GFP signal change (wild-type ribosome), % (test concentration not listed). 1.6% of 350,000 active. AID 720706, 2013;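 active means significant combined selectivity score with lowered wild-type GFP, culture density cut under 30%, mutant RFP and density less affected; inactive means any of these conditions unmet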; further: one replicate is shown; some compounds called inactive have numbers as strong as hits
HNF4A DNA FP: change in binding of human HNF4A to DNA, primary screen, biochemical, fluorescence polarization, FITC-DNA; Hepatocyte nuclear factor 4-alpha (Homo sapiens), P41235; 1 h; activity change, % at 10 µM; 0.3% of 360,000 active; in the data active means activity change above about 30%, passing the limit was not always enough;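 further: controls were the assay level and a saturating level of protein; the project sought stronger binding though the title names inhibitors; some compounds called inactive have numbers as strong as hits; positive values seem to mean higher polarization but the record does not say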
E coli growth: E. coli growth inhibition, primary screen, OD600 | Escherichia coli growth, 23 h; stronger effect = lower value | OD600 absorbance (test concentration not listed) | 0.21% of 330,000 active | AID 1053175, 2014;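 active means OD600 absorbance below the run mean of sample wells minus 3.6 SD, in any replicate, cut at about 0.56 in these data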;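 further: stock transfer was 300 nL into about 60 µL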
Vif TR-FRET: inhibitors of Vif binding to APOBEC3G peptide, primary screen, biochemical, TR-FRET, GST-Vif 1-94, biotin-A3G peptide, dose response retest (AID 1117319); 0.57% of 260,000 active; Virion infectivity factor (Human immunodeficiency virus type 1 group M subtype B (isolate …; one-dose inhibition, %; IC50 in µM for titrated hits; TR-FRET GST-Vif / biotin-A3G peptide binding; higher % means a stronger effect; test concentration not given here; strong numbers were not always called active;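 active means above the screen mean plus three standard deviations and confirmed in dose response; inconclusive means results disagree or hit not tested in dose response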;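 further: Vif residues 1-94 fused to GST binding biotinylated APOBEC3G peptide 110-148; 0% = full assay without inhibitor and 100% = GST in place of GST-Vif; retest series ran down from 100 µM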
FGF22 binding: binders of human FGF22 protein, primary screen, FGF22 synaptogenesis inhibitor project, biophysical, thermal shift, single point. recombinant FGF22 thermal shift, SYPRO orange fluorescence; percent of sucrose octasulfate shift, DMSO zero. calls only at 9.99 µM. 1.5% of 340,000 active. AID 651658, 2012;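 active means melting point raised past a set limit in the mean and every replicate; inconclusive means no clear call; three in four hits are not shown here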
Target sequence (Q9HCT0 whole entry, looked up): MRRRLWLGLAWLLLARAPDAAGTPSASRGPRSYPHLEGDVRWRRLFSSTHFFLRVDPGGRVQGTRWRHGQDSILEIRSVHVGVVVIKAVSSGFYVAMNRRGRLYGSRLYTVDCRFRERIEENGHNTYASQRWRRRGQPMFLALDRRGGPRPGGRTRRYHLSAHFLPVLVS
Ecoli rRNA inh OD600: recorded beside Ecoli rRNA inh, whose call it bears; OD600 change, %; measured here: OD600 growth;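 optical density of the mix in the first replicate; 0 = DMSO median and -100 = no signal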
Ecoli rRNA inh RFP: also measured in Ecoli rRNA inh; calls as there; RFP signal change, %; measured here: RFP humanized mutant strains;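 first replicate; 0 = DMSO median and -100 = no signal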
The depositor's hits bear a star; i = inactive; ? = inconclusive; . = not tested or not shown. Some of the compounds tested. The share of hits here may be higher or lower than overall.

molecule,MLL AF4-AF9 inh,ALR H2O2 inh,Ecoli rRNA inh,Ecoli rRNA inh OD600,Ecoli rRNA inh RFP,HNF4A DNA FP,E coli growth,Vif TR-FRET,FGF22 binding
O=c1c2ccccc2c(C=NC2CCS(=O)(=O)C2)c(O)n1-c1ccccc1 (stereo not drawn),.,-8,.,.,.,4.9,0.72,1%,.
Cc1ccc(S(=O)(=O)NCC(NCc2ccc(F)cc2)c2ccccc2)cc1 (stereo not drawn),-2.0,.,0,9,1.9,-3.3,0.7,2%,i
C[C@@H]1CN([C@@H](C)CO)C(=O)Cc2cc(NC(=O)CCN3CCOCC3)ccc2O[C@@H]1CN(C)S(=O)(=O)c1cccs1,-6.8,.,0,-5,-1.5,.,.,.,i
C[C@@H]1CN([C@@H](C)CO)C(=O)c2cc(NS(=O)(=O)c3cn(C)cn3)ccc2O[C@@H](C)CCCCO[C@@H]1CN(C)C(=O)Nc1ccc(C(F)(F)F)cc1,0.5,.,-59,-82,-20,.,.,.,i
Cc1cc(C)n(-c2nc3ccccc3nc2N2CCN(C(=O)c3ccc(F)cc3)CC2)n1,.,-3,.,.,.,1.0,0.67,7%,.
C[C@@H]1CCCCO[C@H](CN(C)Cc2ccccc2)[C@@H](C)CN([C@H](C)CO)C(=O)c2cc(NC(=O)CCC(F)(F)F)ccc2O1,-12,.,2,9,-2.8,.,.,.,i
CCCCCC(=O)N1C[C@H](O)[C@@H](n2cc(-c3ccc(F)cc3)nn2)C[C@@H]1c1ccccc1,1.4,.,-5,-5,-0.8,-1.9,.,.,i
CNC[C@@H]1Oc2c(NC(=O)C3CCCCC3)cccc2C(=O)N([C@H](C)CO)C[C@@H]1C,-3.2,.,4,10,0.8,.,.,.,i

molecule,MLL AF4-AF9 inh,ALR H2O2 inh,Ecoli rRNA inh,Ecoli rRNA inh OD600,Ecoli rRNA inh RFP,HNF4A DNA FP,E coli growth,Vif TR-FRET,FGF22 binding
C/C=C/c1cnc2c(c1)C(=O)N([C@H](C)CO)C[C@H](C)[C@@H](CN(C)S(=O)(=O)c1ccc(OC)cc1)O2,-2.9,.,-3,-2,-1.1,.,.,.,i
O=C(c1cnccn1)N1CC[C@@H]2[C@H]1c1cc(-c3ccccc3F)ccc1N[C@@H]2CO,-13,.,-2,10,-0.9,.,.,.,i
C[C@H](CO)N1C[C@H](C)[C@@H](CN(C)C(=O)c2ccccc2F)Oc2ncc(-c3ccc(F)cc3)cc2C1=O,-5.0,.,-6,-5,-2.1,.,.,.,i
Cc1ccc(S(=O)(=O)Nc2ccc3c(c2)C(=O)N([C@@H](C)CO)C[C@H](C)[C@@H](CN(C)Cc2ccc(C(=O)Nc4ccccc4N)cc2)O3)cc1,-1.0,.,-2,-2,0.9,.,.,.,i
CCOC(=O)c1cc(-c2ccc(C)o2)n[nH]1,.,-1,.,.,.,0.5,0.65,4%,.
CN[C@@H](C)C(=O)NC[C@H]1O[C@@H](n2cnc3c(N)ncnc32)[C@H](O)[C@@H]1O,-2.4,.,10,10,0.6,3.9,0.7,-3%,i
N#C/C(=N\Nc1ccc(S(=O)(=O)N2CCCCCC2)cc1)C(N)=S,0.0,0,-58,-78,-16,2.7,.,0%,i
CC(=O)N1CCN(S(=O)(=O)c2cccc(C(=O)NC3CC3)c2)CC1,-2.1,.,.,.,.,-0.8,0.62,29%,i

molecule,MLL AF4-AF9 inh,ALR H2O2 inh,Ecoli rRNA inh,Ecoli rRNA inh OD600,Ecoli rRNA inh RFP,HNF4A DNA FP,E coli growth,Vif TR-FRET,FGF22 binding
CC(C)(C)S(=O)(=O)c1cnc(N2CCCC2)nc1N,0.6,-1,-10,3,1.5,1.3,0.68,.,i
Cc1noc(C)c1NC(=O)Nc1ccc2c(c1)CC(=O)N([C@@H](C)CO)C[C@@H](C)[C@@H](CN(C)C(=O)Nc1c(C)noc1C)O2,-2.6,.,5,14,-1.6,.,.,.,i
COC(=O)[C@H](Cc1ccccc1)NC(=O)NCCC1=CCCCC1,.,.,.,.,.,1.9,0.73,6%,.
CC1CCN(C2=NC(=O)/C(=C/c3ccc(O)cc3)S2)CC1,1.7,99*,-19,-16,7.5,6.3,0.66,-16%,i
O=C(Nc1c(C(=O)N2CCCC2)cnn1-c1ccccc1)c1cccc(F)c1,.,37,.,.,.,-2.3,0.71,.,.
Cc1nc(-c2ccccn2)sc1C(=O)Nc1ccc(Cl)c(Cl)c1,.,-10,.,.,.,-0.4,0.67,-6%,.
CN1CCN(S(=O)(=O)c2ccccc2)C(c2ccccc2)C1 (stereo not drawn),-3.6,-24,9,6,2.2,-0.1,0.65,.,i
CCOc1ccc(S(=O)(=O)NCCC(=O)NC2=NCCS2)cc1,.,.,.,.,.,5.2,0.79,15%,.

molecule,MLL AF4-AF9 inh,ALR H2O2 inh,Ecoli rRNA inh,Ecoli rRNA inh OD600,Ecoli rRNA inh RFP,HNF4A DNA FP,E coli growth,Vif TR-FRET,FGF22 binding
CC1(C(=O)NCc2cccc3ccccc23)CCN1Cc1ccc(-c2ccccc2)o1 (stereo not drawn),3.0,.,-2,-4,9.0,0.4,.,.,i
CCCNC(=O)Nc1ccc2c(c1)C(=O)N(C)C[C@@H](OC)[C@H](C)CN[C@@H](C)CO2,-4.2,.,1,3,-0.7,.,.,.,i
O=Cc1cn(-c2ccccc2)nc1-c1ccccn1,0.1,.,4,13,2.1,5.0,0.64,.,i
CC(C)CN(C(=O)c1ccc([N+](=O)[O-])s1)c1c(N)n(Cc2ccccc2)c(=O)[nH]c1=O,-25,-19,-1,8,-0.4,5.6,0.69,0%,i
COC(=O)[C@]12C[C@H](CC(=O)NCc3cccc4ccccc34)C(=O)N(Cc3ccccc3)C1=C[C@H](C(C)C)O[C@@H]2C1CC1,0.2,.,16,9,-1.6,.,.,.,i
O=C(NCc1ccncn1)[C@@H]1[C@@H](CO)[C@@H]2Cn3c(ccc(-c4ccc(F)cc4)c3=O)[C@@H]2N1CC1CC1,0.3,.,-2,-3,2.5,.,.,.,i
O=S1(=O)N=C(N2CCc3ccccc3C2)c2ccccc21,.,-6,.,.,.,6.1,0.69,-33%,.
Cc1occc1C(=O)N1CCN(c2ccccc2)CC1,9.6,29,-12,-9,8.3,1.6,0.72,-5%,i

molecule,MLL AF4-AF9 inh,ALR H2O2 inh,Ecoli rRNA inh,Ecoli rRNA inh OD600,Ecoli rRNA inh RFP,HNF4A DNA FP,E coli growth,Vif TR-FRET,FGF22 binding
O=C(CNC(=O)c1ccc2c(=O)n3c(nc2c1)CCC3)Nc1ccc(F)c(F)c1,-2.2,1,10,11,5.1,-5.6,0.64,5%,i
COc1ccc2c(c1)[nH]c1c(=O)n(CCC3=CCCCC3)cnc12,.,.,.,.,.,-2.2,0.72,-1%,.
CO[C@@H]1CN(C)C(=O)c2cc(NC(C)=O)ccc2OC[C@H](C)N(Cc2ccc(F)cc2)C[C@H]1C,0.4,.,-4,-5,-1.1,.,.,.,i
CCN(CC)CCOC(=O)C1(C2CCCCC2)CCCCC1,5.4,.,-2,-31,-1.2,-1.2,0.67,28%,i
CO[C@H]1CN(C)C(=O)c2cc(NC(=O)CC(F)(F)F)ccc2OC[C@@H](C)N(S(=O)(=O)c2cn(C)cn2)C[C@H]1C,-1.9,.,-1,-3,-1.3,.,.,.,i
CCn1c(SCc2nc3ccccc3[nH]2)nnc1-c1ccccc1OC,.,.,.,.,.,-0.3,0.72,1%,.
Cc1cccc(NC(=O)COC(=O)CC2CCCC2)c1C,-0.7,.,3,10,-0.9,2.1,0.6,6%,.
COc1ccc(Cn2c(=O)cc(C)[nH]c2=S)cc1,3.7,7,3,-1,-1.9,-3.9,0.7,19%,i

molecule,MLL AF4-AF9 inh,ALR H2O2 inh,Ecoli rRNA inh,Ecoli rRNA inh OD600,Ecoli rRNA inh RFP,HNF4A DNA FP,E coli growth,Vif TR-FRET,FGF22 binding
Cc1ccc([N+](=O)[O-])c(C(=O)N/N=C/c2cccs2)c1,.,-5,8,7,-1.6,2.0,.,-4%,i
CC(Oc1cccc(Br)c1)C(=O)N1CCCN(C)CC1 (stereo not drawn),-0.9,-1,4,-7,2.3,-1.8,0.73,.,i
CC(=NNC(=O)c1ccncc1)c1ccc(Cl)c(Cl)c1,0.4,.,2,11,-3.1,1.7,0.65,-5%,i
O=C(CSc1cnc2ccccc2n1)c1ccc(F)cc1,1.3,97*,3,-1,3.3,4.6,0.69,5%,i
CCCc1cc(SCC(=O)Nc2c(C)n(C)n(-c3ccccc3)c2=O)n2c(nc3ccccc32)c1C#N,.,98*,.,.,.,.,0.71,15%,.
CC(=O)C(Sc1ccc2nnc(-c3cccnc3)n2n1)C(C)=O,1.2,-7,11,5,1.2,1.0,0.67,-3%,i
CCOC(=O)c1c[nH]c2ccc([N+](=O)[O-])cc12,-30,.,-12,-15,-0.8,-3.5,0.62,1%,i
CCCCn1c(N)c(S(=O)(=O)c2ccc(C)cc2)c2nc3ccccc3nc21,-1.8,-29,-7,-5,0.5,5.5,0.72,?,i

One compound at a time, as listed above.
`Cc1ccc([N+](=O)[O-])c(C(=O)N/N=C/c2cccs2)c1` in the list: MLL AF4-AF9 inh: .; ALR H2O2 inh: -5; Ecoli rRNA inh: 8; Ecoli rRNA inh OD600: 7; Ecoli rRNA inh RFP: -1.6; HNF4A DNA FP: 2.0; E coli growth: .; Vif TR-FRET: -4%; FGF22 binding: i
`CC(=NNC(=O)c1ccncc1)c1ccc(Cl)c(Cl)c1` in the list: MLL AF4-AF9 inh: 0.4; ALR H2O2 inh: .; Ecoli rRNA inh: 2; Ecoli rRNA inh OD600: 11; Ecoli rRNA inh RFP: -3.1; HNF4A DNA FP: 1.7; E coli growth: 0.65; Vif TR-FRET: -5%; FGF22 binding: i
`CCCc1cc(SCC(=O)Nc2c(C)n(C)n(-c3ccccc3)c2=O)n2c(nc3ccccc32)c1C#N` in the list: MLL AF4-AF9 inh: .; ALR H2O2 inh: 98*; Ecoli rRNA inh: .; Ecoli rRNA inh OD600: .; Ecoli rRNA inh RFP: .; HNF4A DNA FP: .; E coli growth: 0.71; Vif TR-FRET: 15%; FGF22 binding: .

Following part.
molecule,MLL AF4-AF9 inh,ALR H2O2 inh,Ecoli rRNA inh,Ecoli rRNA inh OD600,Ecoli rRNA inh RFP,HNF4A DNA FP,E coli growth,Vif TR-FRET,FGF22 binding
O=[N+]([O-])/C=C/c1cn(Cc2ccc(Cl)cc2)c2ccccc12,3.4,2,-10,0,-7.8,2.7,0.72,.,i
Cc1ccc2cc(CN(CC(C)C)S(=O)(=O)c3ccccc3)c(=O)[nH]c2c1,.,-2,.,.,.,-0.7,0.73,.,.
Cc1ccc(C(=O)N2CCCCC2)cc1S(=O)(=O)N1CCCCCC1,0.8,5,-5,-5,-2.2,2.8,0.7,.,i
CC(OC(=O)Cc1cccc(C(F)(F)F)c1)C(=O)Nc1ccc(Cl)cn1 (stereo not drawn),-2.5,2,-7,-14,3.0,0.7,0.69,3%,i
Cc1c(C(=O)Nc2cccc(Cl)c2)cn2c(nc3ccccc32)c1C#N,.,-7,.,.,.,0.4,0.69,.,.
